# HIV TAR-Tat: HIV-1 TAR-Tat binding disruption | HIV-1 TAR RNA, Tat peptide displacement FRET; hits give high values | z-score (concentration not given with the values) | 0.6% of 100,000 active | AID 1259389;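 note: score is relative to mean and SD of negative controls; some compounds called inactive have numbers as strong as hits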
# CDC25B-CDK2 inh: human CDC25B-CDK2/CyclinA binding inhibition; P30305+P24941; AID 1259370; 0.72% of 94,000 active; HTRF CDC25B-CDK2/CyclinA binding, anti-His/anti-Flag; hits give high values; z-score (test concentration not listed);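 note: score is relative to mean and SD of negative controls; strong numbers were not always called active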
# Starred values were filed as active, the others as inactive; nt = not tested or not shown; & = joins results of further samples.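 Rule for the calls: active = z-score from 3 up in half or more of its runs; inactive = the rest.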
smiles	HIV TAR-Tat	CDC25B-CDK2 inh
CC1CC(C)CN(S(=O)(=O)N2CCCC(C(=O)NCCCN3CCCC3)C2)C1 (centres undefined)	1.09	nt
O=C(c1ccc2c(c1)sc1nc(-c3ccc(F)cc3)cn12)N1CCc2ccccc21	1.41	nt
CC1CCCCC1NC(=O)Nc1ccc2c(c1)N(C)C(=O)c1ccccc1S2 (centres undefined)	-0.15	-2.21
CCN(CC)C(=O)Cn1c(=O)n(-c2ccccc2)c(=O)c2c3c(sc21)CCC3	nt	-1.94
Cc1nc(C(N)=O)c2[nH]c(=O)n(-c3ccc(C)c(C)c3)c2n1	1.5	nt
CC(=O)NC1=NN(C(C)=O)C2(CCCc3ccccc32)S1 (centres undefined)	nt	-0.81
CC1=C(C(=O)OCCOc2ccccc2)C(c2cccs2)C2=C(CCCC2=O)N1 (centres undefined)	1.03	-0.99
Fc1ccc(-c2noc3ncnc(NCc4cccc(Cl)c4)c23)cc1	-0.37	nt

# Continuation.
smiles	HIV TAR-Tat	CDC25B-CDK2 inh
Oc1ccccc1-c1nc(/C=C/c2ccccc2)no1	-0.25	-0.8
S=C1NCN(CCc2ccccc2)CN1	nt	-0.78
Cc1c(-c2nc(-c3ccccc3)no2)nnn1-c1cccc(Cl)c1	0.7	nt
CSc1ccc(C2CC(=O)Nc3c2c(C)nn3-c2nncc(-c3ccccc3)n2)cc1 (centres undefined)	2.15	0.31
Cc1[nH]c(C)c(S(=O)(=O)N2CCC(C)CC2)c1C(=O)N1CCCC1	-0.06	nt
CCCCC(CC)C1OCC(CN2CCOCC2)O1 (centres undefined)	nt	-0.82
COC(=O)c1cc(Br)ccc1NC(=O)c1cc([N+](=O)[O-])ccc1Cl	nt	-2.9
CCOC(=O)Cn1c(=O)c2c(nc3n2CCS3)n(C)c1=O	1.37	-0.9

# (further entries)
smiles	HIV TAR-Tat	CDC25B-CDK2 inh
Cn1c(CN2CCOCC2)nnc1SCc1ccc(Cl)cc1	-0.07	-0.74
Cc1ccc(C)c(S(=O)(=O)N2CCc3cc4ccccc4nc32)c1	-2.85	-2.01
CCOC(=O)CCSc1cc(-n2cccc2)c(Cl)cc1[N+](=O)[O-]	nt	-1.23
Cc1noc2ncnc(NCCCN3CCCCC3)c12	0.05	nt
Cc1ccc2oc(=O)c3cnn(CC(=O)Nc4nccs4)c3c2c1	0.66	-1.03
CCCc1nc2ccccc2n1CC(O)COc1ccccc1 (centres undefined)	0.27	-2.08
CC(C)S(=O)(=O)C/C(N)=N/OC(=O)c1cc(Cl)cc(Cl)c1	nt	0.92
CC(C)N1C(=O)C(Cc2nc3ccccc3c(=O)n2CCCO)c2ccccc21 (centres undefined)	0.59	0.36

# Overlap with the part before: 6 compounds, then new ones.
smiles	HIV TAR-Tat	CDC25B-CDK2 inh
CCOC(=O)CCSc1cc(-n2cccc2)c(Cl)cc1[N+](=O)[O-]	nt	-1.23
Cc1noc2ncnc(NCCCN3CCCCC3)c12	0.05	nt
Cc1ccc2oc(=O)c3cnn(CC(=O)Nc4nccs4)c3c2c1	0.66	-1.03
CCCc1nc2ccccc2n1CC(O)COc1ccccc1 (centres undefined)	0.27	-2.08
CC(C)S(=O)(=O)C/C(N)=N/OC(=O)c1cc(Cl)cc(Cl)c1	nt	0.92
CC(C)N1C(=O)C(Cc2nc3ccccc3c(=O)n2CCCO)c2ccccc21 (centres undefined)	0.59	0.36
CN1C(=O)c2ccccc2Sc2ccc(NC(=O)NC3CC3)cc21	-0.34	2.9
O=C(NCc1ccco1)c1cnc2sccn2c1=O	0.81	0.08
Cc1ccc(SCc2cc(=O)n3[nH]c(C)nc3n2)cc1	0.11	-1.51
CC1CCCCC1NC(=O)C(C)n1ncn2cccc2c1=O (centres undefined)	1.37	-1.89
O=C(NCc1ccc2c(c1)OCO2)c1cccc(-n2cnnc2)n1	0.36	nt
Cc1nnc2c(Nc3ccc(Cl)c(C(=O)O)c3)nc3ccccc3n12	0.22	-0.81
NC(=O)C1CCN(CC(=O)NCc2ccc3c(c2)OCO3)CC1	nt	-0.65
Clc1ccc(C2CC(c3ccc(-c4ccccc4)cc3)Nc3nnnn32)cc1 (centres undefined)	0.53	nt

# Next records.
smiles	HIV TAR-Tat	CDC25B-CDK2 inh
O=C(CCS(=O)(=O)c1ccc2c(c1)CCN2C(=O)C1CC1)NCc1cccs1	0.98	nt
O=C1NCCCC1C(=O)NNC(=S)NCc1ccccc1 (centres undefined)	nt	0.05
CC(C)C(=O)Oc1ccc2c(c1)oc(=O)c1ccccc12	1.55	-1.54
Cc1ccc(SCc2cc(=O)n3ccsc3n2)cc1	2.85	-2.95
O=C(CSc1ncnc2c1sc1cccc(F)c12)N1CCN(Cc2ccc3c(c2)OCO3)CC1	0.44	nt
CC(C)(C)OC(=O)N1CCN(C(=O)c2cccs2)CC1	nt	-3.06
COCCNC(=O)Cn1cnc2c1c(=O)n(C)c(=O)n2C	0.99	-0.74
CN1CCc2c(nnn2-c2ccccc2)C1	nt	-1.68

# (listing goes on)
smiles	HIV TAR-Tat	CDC25B-CDK2 inh
CCCCOc1ccc(C2Nc3ccccc3S(=O)(=O)N2Cc2ccccc2)cc1 (centres undefined)	nt	0.54
COc1ccc(Nc2cc(C)nc3nc(-c4ccco4)nn23)cc1OC	1.92	nt
O=C(O)c1cc2cc(Cl)ccc2[nH]1	1.16	nt
O=C(C(Cc1ccccc1Cl)C(=O)N1CCc2ccccc21)N1CCc2ccccc21	nt	-0.16
O=C(CN1C2=NCCN2c2ccccc21)c1cccc2ccccc12	-1.02	-1.25
COc1cc2c(=O)oc(-c3c(-c4c(F)cccc4Cl)noc3C)nc2c(OC)c1OC	nt	-0.96
COc1ccc(Nc2cc(C)nc(-n3cc([N+](=O)[O-])cn3)n2)c(OC)c1	1.99	nt
CC(=O)Nc1nonc1-c1nnc(SCC(=O)Nc2cc(C)ccc2C)n1C	0.72	-0.53

# Next section
smiles	HIV TAR-Tat	CDC25B-CDK2 inh
COc1ccc(C2Nc3ccc(C(=O)c4ccccc4)cc3NC3=C2C(=O)CCC3)cc1OC (centres undefined)	0.98	0.23
CC1Cc2ccccc2N1C(=O)Cn1c(=O)oc2ccccc21 (centres undefined)	nt	-0.26
CCOc1ccc(-c2cccc(NS(=O)(=O)c3c(C)cc(C)cc3C)c2)nn1	0.82	nt
Cc1ccc(NC(c2c(C)[nH]n(-c3ccccc3)c2=O)(C(F)(F)F)C(F)(F)F)cc1	nt	-1.31
O=C(OCc1ccccn1)c1ccc(COc2ccccc2Cl)o1	-2.56	-2.09
COc1ccc(C(=O)OC2=C(C(=O)c3ccccc3)N(C)S(=O)(=O)c3ccccc32)cc1	nt	-0.29
CC(C)CNC(=O)Nc1cc2c(cc1N1CCCCC1)n(C)c(=O)n2C	0.49	-2.23
CCN1C(=O)C(Cc2nc3ccccc3c(=O)n2CCCO)c2cc(C)ccc21 (centres undefined)	1.29	-0.95

# Following part:
smiles	HIV TAR-Tat	CDC25B-CDK2 inh
Cc1ccc(S(=O)(=O)NCc2nc(-c3cccc(C)c3)no2)cc1	-1.27	-0.97
CCc1cc2c(cc3c(=O)n(CC(=O)N4CC(C)CC(C)C4)ncn32)s1 (centres undefined)	-1.34	-1.74
O=C(Nc1ccccc1)OCc1cccc(COC(=O)Nc2ccccc2)c1F	nt	-1.52
O=c1nc2c(-c3ccccc3Cl)n[nH]n2c2ccccc12	16.8	-0.87
COc1cc(OC)c(NC(=O)CC(C)S(=O)(=O)c2ccc3c(c2)CCN3C(C)=O)cc1Cl (centres undefined)	0.17	nt
CC(C)(C)c1ccc(-c2cc(N)n(S(=O)(=O)c3ccccc3)n2)cc1	1.59	-0.68
Cc1nn(CC(=O)N2CCCC2)c(=O)c2cc3occc3n12	2.07	-0.28
Cc1ccc(-c2c(NC3CCCc4ccccc43)c(=O)c2=O)cc1C (centres undefined)	2.62	nt

# New compounds follow
smiles	HIV TAR-Tat	CDC25B-CDK2 inh
CCOc1ccc(S(=O)(=O)N2CCN(CCn3c(C(F)(F)F)nc4cccnc43)CC2)cc1	0.67	nt
CCC1Sc2ccc(S(=O)(=O)CCC(=O)NC3CCCCC3)cc2NC1=O (centres undefined)	0.02	nt
Cc1ccc2c(CC(=O)O)coc2c1C	-0.47	-0.83
Cc1nn(CC(=O)N(C)C)c(=O)c2ccccc12	0.34	-1.08
COc1ccc(-c2[nH]nc3c2C(c2ccc(F)cc2)C2=C(CC(C)(C)CC2=O)N3)cc1 (centres undefined)	0.9	nt
CC(C)c1ccc(NS(=O)(=O)c2ccc3c(c2)NC(=O)CCS3)cc1	-0.4	nt
Cn1cc(-c2cc3n(n2)CCC(=O)N3CCCC(=O)N2CCCC2)c2ccccc21	1.31	nt
CC(NC(=O)c1ccc(-n2ccc3ccccc32)s1)c1ccc2c(c1)OCCO2 (centres undefined)	1.47	nt

# Going on with the list:
smiles	HIV TAR-Tat	CDC25B-CDK2 inh
O=c1[nH]c2ccc(Cl)cc2c(-c2ccccc2)c1N1CCOCC1	nt	-1.37
CCc1nc(-c2csc(S(=O)(=O)N3CCC(C(=O)NC(C)C)CC3)c2)no1	1.77	nt
CC(=O)Nc1c2n(c3ccccc13)CC(C)(C(=O)NC1CCCC1)N(C1CCCC1)C2=O (centres undefined)	2.02	nt
O=C(O)CCCCCN1C(=O)C2CCCCC2C1=O (centres undefined)	0.03	0.38
c1ccc(-c2nc(N3CCCC3)c3ccccc3n2)cc1	nt	-1.37
CC(C)Cn1cc(NC(=O)NCCCN2CCCC2)c2ccccc2c1=O	1.03	nt
Cc1nc2c(nc(C)n2-c2ccccc2)s1	-1.27	-1.87
COc1ccc(NS(=O)(=O)c2cc3c4c(c2)CC(=O)N4CCC3)cc1	0.36	nt

# More entries:
smiles	HIV TAR-Tat	CDC25B-CDK2 inh
CC(=O)OC/C=C(C)/C=C/C=C(C)/C=C/C1=C(C)CCCC1(C)C	-0.16	nt
Nc1nc(NCc2cccnc2)n[nH]1	nt	-2.43
c1ccc(N2CCN(c3ccccn3)CC2)nc1	nt	0.45
Cc1cccc(C(C)C)c1NS(=O)(=O)c1cc(Br)cnc1N	2.83	-0.85
Cc1c(C(=O)N2CCC(C)CC2)c(S(=O)(=O)NC2CCCCC2)c(C)n1C	0.13	nt
Cn1c(=O)n(CCOc2ccc(Br)cc2)c2ccccc21	0.93	-0.04
c1ccc2c(c1)nc(Nc1ccc(N3CCOCC3)cc1)n1cnnc21	1.59	-1.73
OC(COc1ccc2ccccc2c1)CN1CCN(c2ccccc2F)CC1 (centres undefined)	nt	0.37

# The results go on.
smiles	HIV TAR-Tat	CDC25B-CDK2 inh
Fc1ccccc1-c1noc(NCc2ccccc2)n1	0.94	nt
N/C(=N\OC(=O)Nc1cccc(C(F)(F)F)c1)C1CSCCS1 (centres undefined)	nt	-1.39
Cc1oc2ncnc(N3CCOCC3)c2c1C(=O)NCC1CCCO1 (centres undefined)	0.68	nt
Cn1c(=O)n(Cc2ccccc2F)c(=O)c2c1nc1n2CCN1Cc1ccccc1	3.01	nt
Cc1cc(C)n2nc(NCc3ccccc3F)nc2n1	0.91	0.43
CC(=O)Nc1ccc(OC(=O)c2cccc(C(F)(F)F)n2)cc1	nt	-3.4
O=C(O)c1cc(-c2ccc(O)c(O)c2)nc2n[nH]c(-c3ccccc3)c12	19.2*	-0.65
Nc1cc(=O)[nH]c(SCc2ccccc2)n1	0.35	-0.08&-0.99

# (next part)
smiles	HIV TAR-Tat	CDC25B-CDK2 inh
CCCCCSc1nc2n(n1)C(c1ccccc1C)C1=C(CCCC1=O)N2 (centres undefined)	1.06	-2.53
CCOC(=O)c1sc2ccccc2c1S(=O)(=O)Nc1ccccc1	-0.82	nt
CCOC(=O)c1c(C)oc2nc(C)nc(NCc3ccco3)c12	-0.78	nt
COCc1nc(-c2ccccn2)[nH]c(=O)c1CC1CC1	nt	1.16
CCOc1ccc(CCNc2ccc3nnc(-c4ccc(F)cc4)n3n2)cc1OCC	2.18	-2.05
CN(C)CCNC(=O)c1cc2c(s1)-c1ccc(Cl)cc1SC2	1.07	0.48
COC(=O)C1CCN(c2csc3ccc(Cl)cc3c2=O)CC1	-0.94	nt
COc1ccccc1-c1c(C(F)(F)F)oc2cc(OCC(=O)OCC(C)C)ccc2c1=O	-1.03	0.98

# Following part
smiles	HIV TAR-Tat	CDC25B-CDK2 inh
Cn1cnc2c(=O)oc3ccc(S(=O)(=O)Nc4ccc(F)c(Cl)c4)cc3c21	0.74	nt
CNC(=O)c1c(NC(=O)c2ccc(N(C)C)cc2)sc2c1CCC2	0.68	nt
CCc1ccccc1-n1nnc(-c2nc(-c3ccccc3C)no2)c1N	0.17	nt
CCN(CC)c1ccc2c(c1)CCCN2	-5.38	-2.08
COc1cccc(N2CC(=O)N(NC(=O)NC3CCCCC3)CC2=O)c1	nt	-3.08
Cn1c(=O)[nH]c(=O)c2c1nc(SCC(N)=O)n2CC(O)COc1ccc(Cl)cc1 (centres undefined)	nt	1
CCOC(=O)N1CCN(C(=O)C2CCCN(S(C)(=O)=O)C2)CC1 (centres undefined)	1.05	nt
CCOC(=O)c1c(NC(=O)c2cccs2)sc(C(=O)Nc2ccc3c(c2)OCO3)c1C	0.8	-1.64

# The list continues:
smiles	HIV TAR-Tat	CDC25B-CDK2 inh
COc1ccccc1-n1c(=S)[nH]c2[nH]ncc2c1=O	nt	-2.74
C=CCN1Cc2ccc(C(=O)O)cc2C1	-0.54	-0.47
O=C(CCCN1C(=O)c2cccnc2Sc2ccccc21)NCCCN1CCCC1	-0.51	nt
O=C(CSc1ccc(Cl)cc1)Nc1ccc(OCc2cc(=O)n3ccccc3n2)cc1	0.06	nt
O=C(c1ccccc1)c1cccc(Cl)c1	nt	-2.29
Cc1n[nH]c(C)c1CCc1nc(-c2ccc(Cl)cc2)no1	2.08	-1.77
CN1C(=O)C(O)(CC(=O)c2ccc(F)cc2)c2cc(Br)ccc21 (centres undefined)	2	-1.13
O=S(=O)(NC(=S)Nc1ccc(Cl)c(Cl)c1)c1ccccc1	nt	1.54

# (cont.)
smiles	HIV TAR-Tat	CDC25B-CDK2 inh
N#C/C(=C\c1cccs1)c1ccccn1	nt	-4.31
Nc1ccc2nc(-c3ccc(Cl)cc3)[nH]c2c1	5.14*	-1.99
CC(=O)CSc1nnc2sc3ccccc3n12	nt	-1.06
CC(=O)Nc1ccccc1OCc1cc(=O)n2c(C)csc2n1	-1.03	-2.83
